# Screening results as filed in PubChem BioAssay.
# NS1 inh – influenza NS1 inhibition. S. cerevisiae slowed by influenza A NS1, growth recovery by OD600. Potency, µM (series often up to 46.1 µM), for the others: top-dose activity, positive = more growth. hit rate 0.4% among 270,000. AID 2326; active means well fitted rising curve with a large enough effect; inconclusive means small, poorly fitted or top-dose-only effect; inactive means no such curve, though single readings can be large or run the other way; note: nearly all actives have a fitted effect of over 50% in size
#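 OD600 was taken as the measure of yeast growth restored by compound in an NS1-expressing S. cerevisiae strain. Cells had been washed out of glucose medium and diluted 1:100 into galactose -URA medium, pH 6.0.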
# SARS PLpro yeast – blocks SARS-CoV papain-like protease in a yeast assay. S. cerevisiae expressing SARS-CoV PLpro, growth rescue; control for the full effect not named in the record. Potency, µM (titrated, usually from 32.9 µM), for the others: top-dose activity, positive = growth rescue. hit rate 0.19% among 330,000. AID 485353; active means well fitted rising curve with a large enough effect; inconclusive means small, poorly fitted or top-dose-only effect; inactive means no such curve, though single readings can be large or run the other way; note: 0% is about no effect; nearly all actives have a fitted effect of over 55% in size; growth read by luminescence after 48 h
# Cruzain noTriton – cruzain (T. cruzi) inhibition without detergent | purified cruzain, Z-FR-AMC fluorescence, no detergent | P25779 | hit rate 2.3% among 200,000 | Potency, µM, inactives show max response, negative = inhibition, usual class: inhibitors;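 note: plate controls were enzyme without inhibitor for no effect and buffer without enzyme for full effect; nearly all actives have a fitted effect of over 40% in size; top concentration of the series not given in the record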
# Target sequence (P25779 123-467 limits assumed): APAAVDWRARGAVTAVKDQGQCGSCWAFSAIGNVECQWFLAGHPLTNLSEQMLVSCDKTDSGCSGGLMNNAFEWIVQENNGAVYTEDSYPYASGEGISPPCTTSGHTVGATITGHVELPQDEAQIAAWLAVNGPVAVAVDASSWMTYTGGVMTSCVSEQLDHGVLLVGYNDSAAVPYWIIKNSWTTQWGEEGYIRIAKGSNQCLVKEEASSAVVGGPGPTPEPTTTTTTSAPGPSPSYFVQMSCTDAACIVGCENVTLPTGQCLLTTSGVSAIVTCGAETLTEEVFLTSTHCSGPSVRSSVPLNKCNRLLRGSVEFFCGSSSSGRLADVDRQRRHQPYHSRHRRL
#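 Detergent-free condition (0.00005% Triton X-100) in acetate buffer pH 5.5 with DTT. 1.5 nM enzyme and compound were pre-mixed 15 min, then 2 uM Z-FR-AMC substrate added; reaction progress from fluorescence change between first and third reads (60 s).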
# Marburg entry inh – blocks Marburg virus binding to or entry into cells; Marburg virus pseudotyped entry inhibition, cell reporter; control for the full effect not named in the record; about a third of the inactives were read at about 46 µM; Potency, µM (series often up to 37.8 µM), without a hit: at the highest dose activity change, negative = inhibition, most hits filed as inhibitors; hit rate 1.8% among 300,000; AID 540276; active = well fitted inhibition curve with a large enough effect; inconclusive = small, poorly fitted or top-dose-only effect, or effect the other way; inactive = flat fitted curve, though single readings scatter; tested in HEK293 cells; about a fifth of its hits are not listed in these tables; note: % is set by controls: 0 for no effect and ±100 for the full control effect; luciferase read-out
# Cruzain inh Det – inhibitors of Trypanosoma cruzi cruzain with detergent; AID 1478; P25779; hit rate 0.43% among 200,000; purified cruzain, Z-FR-AMC fluorescence, 0.01% Triton; Potency, µM, inactives show max response, negative = inhibition, most hits filed as inhibitors;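 note: plate controls were neutral wells for no effect and buffer without enzyme for full effect; nearly all actives have a fitted effect of over 40% in size; top concentration of the series not given in the record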
#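 15 min RT preincubation of 1.5 nM cruzain with compound, then 2 uM Z-FR-AMC added; kinetic AMC fluorescence, 60 s delta. Triton X-100 0.01%, pH 5.5.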
# RE007 growth inh – less growth of the S. pombe RE007 Vpr strain | S. pombe RE007 Vpr strain, BacTiter-Glo ATP luminescence, 24 h; control for the full effect not named in the record | Potency, µM (doses to about 92.2 µM), inactives show at the top dose activity change, negative = less growth | hit rate 0.21% among 360,000 | AID 651644; active = well fitted falling curve with a large enough effect; inconclusive = small, poorly fitted or top-dose-only effect; inactive = no such curve, though single readings can be large or run the other way;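 note: % is set by controls: 0 for no effect and ±100 for the full control effect; nearly all actives have a fitted effect of over 50% in size; the assay follows cell death caused by Vpr and the record does not say whether a fall means rescue or toxicity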
#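 Fission yeast RE007 carrying one integrated HIV-1 vpr copy, seeded at OD 0.01 in PMG+AL medium with 23 nL pinned compound. Grown 24 h at 30 degrees; viability read by BacTiter-Glo luminescence after 5 min.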
# Lassa entry inh – Lassa virus entry inhibition; Lassa virus pseudotype entry inhibition, cell reporter; control for the full effect not named in the record; Potency, µM (top dose mostly 37.9 µM), for the others: top-dose activity change, negative = inhibition, actives largely listed as inhibitors; hit rate 1.2% among 300,000; active means well fitted inhibition curve with a large enough effect; inconclusive means small, poorly fitted or top-dose-only effect, or effect the other way; inactive means flat fitted curve, though single readings scatter; tested in HEK293 cells; note: % is set by controls: 0 for no effect and ±100 for the full control effect; nearly all actives have a fitted effect of over 50% in size; luciferase read-out
# StopGo reporter – FMDV 2A StopGo reporter, luciferase signal; hit rate 1.2% among 410,000; AID 1159524; Potency, µM (highest dose often 57.9 µM), for the others: at the highest dose signal change, negative = less light; human cells with a luciferase reporter of 2A StopGo recoding; control for the full effect not named in the record; active = well fitted falling curve with a large enough effect; inconclusive = small, poorly fitted or top-dose-only effect; inactive = no such curve, though single readings can be large or run the other way; tested in HEK293T cells; note: % is set by controls: 0 for no effect and ±100 for the full control effect; nearly all actives have a fitted effect of over 45% in size; luciferase light after 4 h
# The depositor's hits bear a star; ? = inconclusive; nt = not tested or not shown; & = joins results of further samples; [ ] = remark or other dose. Unless noted, calls come from the whole dose curve; as a rule, active = well fitted curve in the direction sought with a large enough effect; inconclusive = small, poorly fitted or top-dose-only effect, or another doubt; inactive = no such curve, though single readings can be large; an effect the other way counts as inactive or inconclusive. Potency is the fitted concentration of half-maximal effect.
SMILES,NS1 inh,SARS PLpro yeast,Cruzain noTriton,Marburg entry inh,Cruzain inh Det,RE007 growth inh,Lassa entry inh,StopGo reporter
CC(=O)Nc1ccc(S(=O)(=O)NCc2ccc(C)cc2)cc1,-5%,3%,-5%,2%,4.4%,0%,13%,-7%
CCOC(=O)N1CCC(N(CCN(C)C)C(=S)Nc2ccccc2C)CC1,0%,-12%,-15%,?,0.0%,-1%,14%,-25%
CC(=O)c1ccc(NC(=S)Nc2cccc3ccccc23)cc1,?,2%,nt,nt,nt,-6%,nt,-4%
COc1ccccc1NC(=O)c1cc(-c2ccc(C)o2)nc2ccccc12,7%,-1%,nt,?,nt,?,2%,-18%
CCC(C)(C)NC(=O)C(C(C)C)N(CC1CCCO1)C(=O)CNS(=O)(=O)c1ccc(F)cc1 (centres undefined),5%,-2%,nt,-24%[46.1 µM],nt,7%,-21%,-8%
FC(F)(F)c1cccc(OCc2noc(-c3ccsc3)n2)c1,4%,1%,nt,2%[46.1 µM],nt,-16%,15%[46.1 µM],-4%
CC(=O)c1cccc(NC(=O)c2ccc(C(=O)Nc3cccc(C(C)=O)c3)nc2)c1,-1%,-1%,nt,3%,nt,-2%,-7%,17%
O=C(NCCN1CCOCC1)C(=O)NCC1OCCN1S(=O)(=O)c1cc(F)ccc1F (centres undefined),5%,3%,nt,3%,nt,-8%,-2%,-13%
CS(=O)(=O)Nc1ccc(Br)cc1C(=O)c1ccccc1,-1%,-1%,7%,-21%,-2.3%,4%,-27%,12%
COc1ccccc1-c1noc(CCC(=O)NC2CCCCC2)n1,10%,1%,nt,4%,nt,-6%,13%,-1%
O=C1c2ccccc2C(=O)N1Cc1ccc2c(c1)OCO2,-27%,-6%,-10%,3%,-1.8%,17%,14%,4%
NS(=O)(=O)c1ccc(CCNc2nccn(-c3cccc(C(F)(F)F)c3)c2=O)cc1,nt,nt,-2%,nt,-16%,nt,-1%[46.1 µM],-25%
CC1(C)Cc2c(c(-c3ccccc3)[nH]c(=O)c2C#N)CO1,-2%,1%,-3%,-10%,-3.0%,-2%,1%,-9%
COc1cccc(-n2c(SCC(=O)Nc3sc4c(c3C(N)=O)CCC4)nc3ccccc3c2=O)c1,9%,2%,25µM*,?,2.0%,11%,-12%,6%
COC(=O)c1ccc(C(=O)OC)c(NC(=O)CS(=O)(=O)Cc2ccccc2)c1,-8%,3%,-3%,?,1.4%,-11%,-1%,-11%
CCOC(=O)c1ccccc1NC(=O)Cn1c(=O)n(CCC(=O)NCc2ccccc2OC)c(=O)c2ccccc21,nt,nt,-7%,?,-1.6%,nt,4%[46.1 µM],-28%
CC(=O)NCCNC(=O)CCCc1nnc2n(C)c(=O)c3sccc3n12,nt,nt,4%,-4%[46.1 µM],-1.9%,nt,?,-15%
COc1cc(/C=N/Nc2ccc(F)cc2F)cc(OC)c1OC,-8%,-4%,-4%,2%,-12%,222%,-5%,-7%
Cc1cc(C)c(C#N)c(SCc2ccccc2C)n1,-17%,-7%,-4%,?,-7.5%,3%,-24%,?
COc1cc(N)c(Cl)cc1C(=O)OCC(=O)Nc1cccnc1Cl,nt,-1%,nt,10%,nt,-3%,-15%,-7%
CCNc1c(N)c(=O)oc2ccccc12,1%,-1%,-11%,5%,2.0%,20%,7%,-17%
Clc1nc(NC2CCCC2)nc(N2CCOCC2)n1,4%,2%,nt,?,nt,18%,-12%,-25%
COC(=O)c1[nH]nc(C(=O)OC(C)(C)C)c1-c1ccccc1,-3%,3%,-2%,-28%,-2.0%,2%,?,-19%
O=C(Cc1ccccc1)OCc1ccccc1,nt,-3%,-5%,nt,0.0%,-5%,nt,-8%
CC1CN(C(=O)C(Sc2ccccc2)c2ccccc2)CC(C)O1 (centres undefined),2%,?,-7%,?,0.9%,-6%,-10%,0%
# More entries.
SMILES,NS1 inh,SARS PLpro yeast,Cruzain noTriton,Marburg entry inh,Cruzain inh Det,RE007 growth inh,Lassa entry inh,StopGo reporter
CC(C)C[C@H](NC(=O)N1CCn2c1nc1ccccc12)C(=O)NCC1CCCO1 (some centres undefined),-9%,?,nt,nt,nt,11%,nt,-4%
c1ccc(N2CCN(c3ncccn3)CC2)cc1,-17%,-1%,-1%,23%,3.6%,-5%,?,6%
COc1cc(C(=O)Nc2nc(-c3cc(C)ccc3C)c(C)s2)ccc1OCC(=O)Nc1ccc(F)cc1,-6%,23%,20µM*,4%,-5.1%,nt,-25%,?
CCOC(=O)c1cnc2c(Cl)c(Cl)ccc2c1Nc1ccc(N(C)C)cc1,nt,nt,2%,-10%[46.1 µM],-2.2%,nt,-5%[46.1 µM],-11%
CSc1nsc(SC)c1C(=O)O,nt,-6%,nt,15%,nt,-9%,?,-15%
COc1ccccc1NC(=O)CN(Cc1ccco1)C(=O)c1ccc(Cl)nc1,5%,0%,nt,nt,nt,2%,nt,-19%
C#CCSc1nc2ccccc2n1C(=O)c1ccc(S(=O)(=O)N2CCCCC2)cc1,-10%,-32%,0%,6%,-3.8%,0%,9%,-7%
Cc1cc(C)nc(CC(N)=O)n1,5%,-1%,9%,4%,-0.1%,20%,6%,-13%
Cc1ccc(O)c(C(CC(=O)NCc2cccnc2)c2ccccc2)c1 (centres undefined),0%,0%,nt,?,nt,14%,2%,-20%
COCc1cc(C)nc(OCC(=O)N/N=C/c2ccc(C)cc2)c1C#N,4%,-1%,nt,nt,nt,-11%,nt,0%
Cc1ccc(C)c(N2CCN(C(=O)Cn3ncc4c([nH]c5ccc(C)cc54)c3=O)CC2)c1,13%,-1%,nt,nt,nt,-6%,nt,-6%
FC(F)(F)c1cc(NC(=S)NC(c2ccccc2)c2ccccc2)cc(C(F)(F)F)c1,nt,nt,-17%,?,0.5%,nt,?,nt
COc1cc2c(C#N)c(N3CCCCC3)nc(N)c2c(N)n1,-69%,-9%,-28%,-20%,-13%,6%,-22%,7%
COC(=O)c1ccc(CNC(=O)CSc2nc3ccccc3[nH]2)cc1,1%,1%,nt,17%[46.1 µM],nt,-10%,-1%,30%
CCOc1ccc(CNC(=O)c2ccc3c(c2)nc2n3CCCCC2)cc1,nt,nt,-3%,nt,-1.1%,nt,?,28%
Cc1cccc(C(=O)Nc2nnc(S(=O)(=O)N3CCCCCC3)s2)c1,4%,5%,nt,nt,nt,-14%,nt,12%
CCC(=O)Oc1ccc(C(=O)Nc2c[nH]c(=O)[nH]c2=O)cc1,2%,-4%,-14%,?,0.1%,-6%,8%,-20%
Cc1cc(C)n(-c2nc(C)nc3sc4c(c23)CCC(C)C4)n1 (centres undefined),-10%,1%,4%,-19%,-2.5%,8%,-8%,nt
Cc1cc(C)cc(NC(=O)c2cccc(C(=O)Nc3cc(C)cc(C)c3)c2)c1,nt,nt,-4%,nt,-0.3%,nt,-7%[46.1 µM],-5%
CCOc1ccc(S(=O)(=O)N2CCN(C(=O)C3CC3C)CC2)cc1 (centres undefined),nt,1%,nt,-15%[46.1 µM],nt,-1%,11%[46.1 µM],12%
O=C(CNC(=O)c1cccc([N+](=O)[O-])c1)NC1CCCc2ccccc21 (centres undefined),nt,0%,nt,-3%,nt,0%,-3%,22%
Cc1ccc(Cl)cc1N1CCN(C(=O)Cn2nc(C)n3c(cc4sccc43)c2=O)CC1,nt,nt,-7%,5%[46.1 µM],-1.6%,nt,nt,?
CCOc1ccccc1C(=O)NCC(=O)Nc1ccc2c(c1)OCO2,nt,0%,nt,18%,nt,-9%,-1%,13%
COc1ccccc1N1CCN(C(=O)c2ccccc2Oc2ccccc2)CC1,-43%,12%,?,?,0.9%,-10%,?,?
Cc1occc1-c1nnc(SCC(=O)N2CCCc3ccccc32)n1Cc1ccco1,-43%,4%,3%,-1%&0%,1.1%,8%,-5%,-10%
# Following part:
SMILES,NS1 inh,SARS PLpro yeast,Cruzain noTriton,Marburg entry inh,Cruzain inh Det,RE007 growth inh,Lassa entry inh,StopGo reporter
COc1ccc(OC)c(-n2c(-c3ccc(O)cc3O)n[nH]c2=S)c1,-7%,-1%,nt,-6%[46.1 µM],nt,-4%,-18%,-13%
O=C(Nc1ccc(F)cc1)N1CCOCC1,-3%,9%,3%,-9%,-1.0%,-9%[3.69 µM],?,6%
CCN(CC)S(=O)(=O)c1ccc(NC(=O)c2cccs2)cc1,2%,1%,nt,-20%[46.1 µM],nt,-2%,?,20%
Cc1ccc(S(=O)(=O)NC(CC(C)C)C(=O)N2CCOCCOCCOCC2)cc1 (centres undefined),0%,0%,nt,?,nt,34%,-13%,-1%
CC(CCc1ccccc1)NCc1cccc2ccccc12 (centres undefined),-5%,7%,nt,nt,nt,-18%,nt,-5%
O=C(Nc1ccc(F)cc1F)c1cccc(C(=O)Nc2ccc(F)cc2F)n1,7%,28%,nt,8%,nt,-2%,7%,-10%
COC(=O)C(C)(C(=O)OC)c1ccc(C(F)(F)F)cc1[N+](=O)[O-],1%,0%,nt,?,nt,11%,12%,-17%
COc1cccc(NC(=O)CC(=O)c2ccccc2)c1,1%,-1%,nt,?,nt,-5%,?,9%
CC(=O)c1c(C)[nH]c(C(=O)OCc2c(F)cccc2Cl)c1C,nt,-1%,nt,?,nt,2%,?,?
Cn1cc(S(=O)(=O)N2CCN(C(=O)c3ccco3)CC2)c(=O)n(C)c1=O,0%,5%,-12%,nt,0.2%,3%,nt,?
CC(C)CC(NC(=O)C1CCCCC1)C(=O)N1CCC2(CC1)OCCO2 (centres undefined),9%,11%,-5%,-16%,-0.9%,14%,1%,2%
Cc1cc(OC(C)C(=O)NCc2ccncc2)c2c(C)c(C)c(=O)oc2c1 (centres undefined),-8%,?,nt,nt,nt,5%,nt,-14%
Cc1csc(NC(=O)C2CCCN(S(=O)(=O)c3ccc4c(c3)oc(=O)n4C)C2)n1 (centres undefined),-23%,21%,5%,nt,2.6%,0%,nt,?
CC(C)OC(=O)c1sc2nc(-c3ccccc3)ccc2c1N,-6%,2%,-5%,?,-9.1%,-7%,?,?
CN(C)c1ncnc2sc(-c3ccccc3)cc12,-43%,-5%,nt,?,nt,-19%,0%[46.1 µM],-20%
Nc1cc(C(F)(F)F)ccc1N1CCOCC1,nt,-3%,nt,18%,nt,1%,12%,-7%
